# NPYLR7 ag = activates Aedes aegypti NPYLR7 receptor; HEK293T NPYLR7/Galpha15, GCaMP6s calcium fluorescence; activation, % at 10 µM; 0.15% of 270,000 active; in the data active means activation above about 40%;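 further: 0% = vehicle and 100% = reference agonist at the receptor; some compounds past the cut are filed as inactive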
# NPYLR7 ag max-min = recorded beside NPYLR7 ag, whose call it bears; activation, %; measured here: Max-Min RFU normalised activation; some inactives read as strong as hits;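 span of the calcium signal over five minutes; 0% = vehicle and 100% = native peptide agonist; compound fluorescence can raise it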
# The depositor's hits bear a star; & = joins results of further samples.
# Order of results – NPYLR7 ag | NPYLR7 ag max-min
(1) COc1ccc(-c2cnc3ncnn3c2N2CCCN(C(=O)c3c(-c4ccccc4)noc3C)CC2)cc1OC
 : 2 | -3
(2) COC(=O)c1ccoc1CN(C1CC1)C1CCS(=O)(=O)C1 (stereo not given)
 : -1 | -1
(3) Cc1cccn2c(=O)c(C(=O)NCc3ccccc3)c(O)nc12
 : -1 | 7
(4) Cc1cc(C)cc(SCc2csc(-c3ccc(C(F)(F)F)cc3)n2)c1
 : 4 | 1
(5) O=c1c(N=Nc2ccc(Cl)c([N+](=O)[O-])c2)c(-c2ccc([N+](=O)[O-])cc2)[nH]n1-c1ccccc1
 : -21 | -25
(6) CCOC(=O)N1CCN(C(=O)c2cc(-c3cccc(OC)c3)n3nc(C(C)(C)C)cc3n2)CC1
 : -7&-11 | 0&-9
(7) Cc1ccccc1NC(=O)c1nnn(-c2cc(Cl)ccc2C)c1C
 : -5 | -7
(8) Cc1cccn2c(CNC(=O)c3cc(-c4ccccc4O)n[nH]3)cnc12
 : -7 | -15
(9) COCCn1c(CN2CCc3sccc3C2)cnc1S(=O)(=O)CC1CCCCC1
 : 1 | -2
(10) CCOC(=O)C1=C(CC)NC2=C(C(=O)CCC2)C1c1ccc(O)cc1 (stereo not given)
 : 4 | -2
(11) O=c1cc(-c2ccccc2)n2ccccc2n1
 : 8 | 1
(12) CCCc1nc(N2CCCC(c3cc(=O)[nH]cn3)C2)c2cnn(C)c2n1 (stereo not given)
 : 0 | -2
(13) Cc1ccc(NC(=O)CC2Nc3ccc(C(F)(F)F)cc3NC2=O)c(C)c1 (stereo not given)
 : 15 | 12
(14) CCOC(=O)C1CCCN(C(=O)c2cnn(-c3ccc(F)cc3)c2-c2ccccc2)C1 (stereo not given)
 : 5 | 16
(15) O=C(CCC1CCCCC1)Nc1nccs1
 : 3&-1 | 10&-4

# Continued.
# Order of results – NPYLR7 ag | NPYLR7 ag max-min
(16) Nc1nc(CSCc2cc(Cl)c3c(c2)OCO3)nc2ccccc12
 : 4 | 3
(17) O=C1NCCN(CCCc2ccccc2)C1CC(=O)N1CCOCC1 (stereo not given)
 : 4 | 5
(18) CCN(C(=O)c1cccc(Br)c1C)c1ccccc1
 : 20 | 11
(19) Cc1ccc(C(C)NCCNC(=O)C(C)S(C)(=O)=O)o1 (stereo not given)
 : 3 | 0
(20) Cc1cc(C(=O)CSc2nnc(-c3cccs3)n2C2CC2)c(C)s1
 : 1 | 7
(21) COCC(=O)Nc1c2c(nn1C(C)(C)C)CSC2
 : -4 | -8
(22) CCc1nc2c(OCc3cc(Cl)cc(Cl)c3)cccn2c1N(C=O)Cc1ccccc1
 : 10 | 6
(23) Cc1[nH]cnc1C(=O)NCc1nc(-c2cccc(F)c2)c(-c2ccccn2)[nH]1
 : 20 | 11
(24) O=C(C1CC1)N1CCC(=NNc2ccccc2C(F)(F)F)CC1
 : 2 | 4
(25) CC(=O)Nc1ccc2c3c(cccc13)C(=O)N(c1ccccc1)C2=O
 : -1 | -7
(26) O=C(Cn1nc2ccc(SCc3ccc(Cl)cc3)nn2c1=O)Nc1ccccc1C(F)(F)F
 : 0 | -4
(27) COc1ccc(S(=O)(=O)N2CCN(C)CC2)cc1OC
 : 2 | 0
(28) CCOC(=O)c1sc(NC(=O)c2ccc(F)c(F)c2)nc1C
 : 2 | 4
(29) CCc1ccc(CN(C)Cc2snnc2C)nc1
 : -3 | -5
(30) O=C(c1ccncc1)N(c1cc2sc(=O)oc2c2ccccc12)S(=O)(=O)c1ccccc1
 : 2 | 16

# Other compounds
# Order of results – NPYLR7 ag | NPYLR7 ag max-min
(31) Oc1ccc(C=NNC(=S)NN=Cc2ccc(O)cc2)cc1
 : 7 | 9
(32) CCOC(=O)N1CCC(n2cc(-c3c(C)nn(C)c3Cl)nn2)CC1
 : 27 | 9
(33) CSc1cc(-c2ccccc2)oc1C(=O)c1ccccc1
 : -6 | -5
(34) Nc1ccc2n[nH]nc2c1
 : -3 | 0
(35) Cc1nc(C(C)C)ncc1C(=O)N1CCC2(CCNC(=O)CC2)CC1
 : 4 | 3
(36) Clc1cccc(CSc2nnc(-c3ccc4c(c3)OCO4)o2)c1
 : 4 | 5
(37) CN(C(=O)c1ccsc1)C(Cc1ccccc1)C1CCN(C(=O)c2ccc3c(c2)OCCO3)CC1 (stereo not given)
 : 4 | -2
(38) N#Cc1c(N)nc2c(c1-c1ccc3c(c1)OCO3)CCCCCC2
 : 3 | 1
(39) COc1ccc(-c2nn(-c3ccccc3)cc2CN(C)Cc2cnccn2)c(F)c1
 : 0&-4 | -7&-5
(40) Cc1ccc(N2CC(C(=O)Nc3cccc(S(=O)(=O)N4CCCC4)c3)CC2=O)cc1 (stereo not given)
 : 0 | -1
(41) CCOC(=O)C1(Cc2ccccc2)CCCN(C(=O)CCc2nc3ccccc3s2)C1 (stereo not given)
 : 4&1 | 12&-4
(42) Cc1ccc(C)c(C2=C/C(=C3\c4ccccc4-c4ncccc43)C(=O)O2)c1
 : -2 | -2
(43) Cc1c(N2CCC(CS(N)(=O)=O)CC2)nn2c(C(F)(F)F)nnc2c1C
 : 10 | 9
(44) O=C(C1CCCN(Cc2cc3n(n2)CCCNC3)C1)N1CCOCC1 (stereo not given)
 : 9 | 10
(45) Cc1cc(N(C)/N=C\c2cccnc2)nc(-c2ccccc2O)n1
 : 0 | -2

# (continued)
# Order of results – NPYLR7 ag | NPYLR7 ag max-min
(46) CCOc1cc(Br)cc(/C=C2/SC(=S)N(CC(=O)O)C2=O)c1O
 : -2 | -5
(47) CC1CCCC(N(C)c2nn3c(=O)ccnc3s2)C1 (stereo not given)
 : 5 | 5
(48) CC1CN(C)CCN1C(C)C(=O)NCc1ccccc1F (stereo not given)
 : -1 | -1
(49) COC(=O)c1ccc2c(c1)C1CCCCC1C(=O)N2Cc1ccccc1 (stereo not given)
 : 5 | 10
(50) COCC(=O)Nc1cccc(-n2nc(OCC(C)C)nc2-c2ccc(C(F)(F)F)cc2)c1
 : 7 | 12
(51) O=C(c1ccccc1OC(F)(F)F)N1CCC(c2cn(Cc3cccc(F)c3)c3ccccc23)CC1
 : -1 | 1
(52) COc1ccc(C)cc1S(=O)(=O)C1CS(=O)(=O)CC1N1CCCC1 (stereo not given)
 : 13 | 9
(53) CCC(CC)C(=O)N(Cc1cc(NC(=O)c2ccco2)ccc1N(C)C)CC1CCCO1 (stereo not given)
 : 10 | 14
(54) CCN(CC)c1ncnc2c1sc1nc(C)c3c(c12)CC(C)(C)OC3
 : 7 | 4
(55) CCOC(=O)c1nn(-c2cccc(C)c2)c(=O)c2c(N)scc12
 : -4 | -5
(56) Cc1ncc(C(=O)NC(C)(C)c2ccc(Br)cc2)s1
 : 6 | 3
(57) Cc1cc(N2C(=O)c3oc4ccc(F)cc4c(=O)c3C2c2ccccc2)no1 (stereo not given)
 : 3 | 1
(58) CC1CN(C)CCN1C(=O)c1occc1COc1cccc(C#N)c1 (stereo not given)
 : 7 | 4
(59) CCCC1CCCN(C(=O)Nc2cccnc2OC)CC1 (stereo not given)
 : 9 | 8
(60) COc1ccccc1-c1nn2c(Cn3cnc4ccccc43)nnc2s1
 : 20 | 14

# (list continues)
# Order of results – NPYLR7 ag | NPYLR7 ag max-min
(61) COc1cc(C)ccc1S(=O)(=O)NCc1ccco1
 : -6 | -7
(62) Cc1ccc(-n2ncc(Oc3ccc4c(c3)OCO4)c(Nc3cccc(C(=O)N4CCCCC4)c3)c2=O)cc1
 : 9 | 12
(63) CCCCOCCOCC(=O)N1CCN(Cc2ccc(-c3noc(C4CCCC4)n3)cc2)CC1
 : -5 | -9
(64) COc1cccc(CN(C)C(=O)CSc2nnc3n(CCC(C)C)c(=O)c4ccccc4n23)c1
 : 6 | 6
(65) O=C(c1ccc(-c2cn(-c3ccccc3)cn2)cc1)N1CCC2(CCCO2)CC1
 : 6 | 3
(66) COc1ccc(C2CC(c3ccccc3Cl)=NN2C(=O)CN2CCOCC2)cc1 (stereo not given)
 : 1 | 3
(67) CCn1c(SCC(=O)Nc2cccc(F)c2)nnc1N1CCOCC1
 : 20 | 13
(68) CCOC(=O)c1ccc(NC(=O)N(CC(=O)N(Cc2ccc(F)cc2)Cc2cccs2)C2CCCCC2)cc1
 : 0 | 2
(69) CCCc1ccc(CN2CCC(Cc3n[nH]c(=O)n3CC)CC2)o1
 : 1 | -4
(70) O=C(CCCn1nc(-c2ccc(F)cc2)ccc1=O)Nc1ccc(C(F)(F)F)cc1
 : 4 | 5
(71) c1ccc(CNc2nc3ccccc3n3cnnc23)nc1
 : 4 | 4
(72) O=C(CSc1nc2ncccc2c(=O)n1-c1ccccc1)NC1CC1
 : 8 | 5
(73) O=C(CCNC(=O)c1ccccc1F)NCCN1CCOCC1
 : 19 | 5
(74) CCOc1nn(CC)cc1C(=O)Nc1cccc(NC(C)=O)c1
 : -14 | -17
(75) CCC(NC(=O)CCc1nnc(Cc2cc(OC)ccc2OC)o1)c1ccncc1 (stereo not given)
 : 4&-1 | 1&-3

# (list continues)
# Order of results – NPYLR7 ag | NPYLR7 ag max-min
(76) CCN(Cc1cccc(F)c1)C(=O)NC(C)c1cccs1 (stereo not given)
 : 0 | -2
(77) O=C1NCCC12CCN(Cc1ccc(-c3csnn3)cc1)CC2
 : 8 | 6
(78) COCc1c(Br)c(C)nc(OCC(=O)N/N=C\c2ccc(Oc3ccc([N+](=O)[O-])cc3[N+](=O)[O-])c(OC)c2)c1C#N
 : 4 | 4
(79) CCS(=O)(=O)N1CCN(c2ccc(Nc3ccccn3)nn2)CC1
 : 14 | 5
(80) CCc1nc(CC)n(Cc2cc(C)c(C(=O)OC)o2)n1
 : 5 | 3
(81) Cn1ncc2c(N3CCN4C(=O)CNC(=O)C4C3)nc(C(C)(C)C)nc21 (stereo not given)
 : -1 | 0
(82) CCC(C(=O)NC1CCN(c2ccccc2C(=O)NCCc2ccc(OC)c(OC)c2)CC1)c1ccccc1 (stereo not given)
 : -3 | 5
(83) CCc1cccc(C)c1NC(=O)C(C)n1cccn1 (stereo not given)
 : 1 | 1
(84) O=C(CN1CCCC1)N1CCCC(c2ccc(F)cc2)c2ccc(F)cc21 (stereo not given)
 : 0 | -2
(85) CCCNC(=O)c1c(C)c(CC)c(C)n1Cc1ccc(F)c(F)c1
 : 25 | 29
(86) O=C(CCC(=O)N1CCCC(c2ccccc2)CC1)NC1CCCC1 (stereo not given)
 : 3 | -4
(87) CCOC(=O)c1cnc(-c2ccc(C(F)(F)F)cc2)nc1NCC(C)(C)CN(C)C
 : 3 | 1
(88) Cc1nccn1-c1cccc(N2CCC(OCC3CCCCO3)CC2)n1 (stereo not given)
 : 4 | 5
(89) Nc1ccc(S(=O)(=O)C(F)(F)F)cc1N
 : 2&3 | 1&-1
(90) CC(C)C(NCC(=O)NC1CCCc2ccccc21)c1ccc2c(c1)OCCCO2 (stereo not given)
 : 4 | 4

# One compound at a time, from the list above.
# Listed for `CCCNC(=O)c1c(C)c(CC)c(C)n1Cc1ccc(F)c(F)c1` → NPYLR7 ag = 25; NPYLR7 ag max-min = 29
# Listed for `O=C(CN1CCCC1)N1CCCC(c2ccc(F)cc2)c2ccc(F)cc21` (stereo not given) → NPYLR7 ag = 0; NPYLR7 ag max-min = -2

# Carrying on.
# Order of results – NPYLR7 ag | NPYLR7 ag max-min
(91) Cc1cccc(NC(=O)C2CCN(Cn3nc(OC(C)C)sc3=S)CC2)n1
 : 0 | -1
(92) COc1cc(NC(=O)N(CCN2CCCC2)CC(=O)N(Cc2ccccc2)Cc2sccc2C)cc(OC)c1
 : 8 | 11
(93) COc1ccc2c3c(ccc2c1)C1CCC(=O)N1CC3 (stereo not given)
 : -7 | -10
(94) O=C(/C=C\c1ccccc1)NCc1cc(-c2ccc(F)cc2F)on1
 : 0 | -1
(95) CCc1nnc(-c2cc3ccccc3n2Cc2cccnc2)o1
 : -4 | -5
(96) CCOC(=O)C1(Cc2ccc(OC)cc2)CCN(C(=O)C2=CCCCC2)CC1
 : 3 | 1
(97) O=C(CN1CCC2(CC1)OCCCO2)Nc1cc(Cl)cc(Cl)c1
 : 9 | 10

# Molecules listed so far with an aryl methoxy group:
# Order of results – NPYLR7 ag | NPYLR7 ag max-min
(1) COc1ccc(-c2cnc3ncnn3c2N2CCCN(C(=O)c3c(-c4ccccc4)noc3C)CC2)cc1OC
 : 2 | -3
(6) CCOC(=O)N1CCN(C(=O)c2cc(-c3cccc(OC)c3)n3nc(C(C)(C)C)cc3n2)CC1
 : -7&-11 | 0&-9
(27) COc1ccc(S(=O)(=O)N2CCN(C)CC2)cc1OC
 : 2 | 0
(39) COc1ccc(-c2nn(-c3ccccc3)cc2CN(C)Cc2cnccn2)c(F)c1
 : 0&-4 | -7&-5
(52) COc1ccc(C)cc1S(=O)(=O)C1CS(=O)(=O)CC1N1CCCC1 (stereo not given)
 : 13 | 9
(59) CCCC1CCCN(C(=O)Nc2cccnc2OC)CC1 (stereo not given)
 : 9 | 8
(60) COc1ccccc1-c1nn2c(Cn3cnc4ccccc43)nnc2s1
 : 20 | 14
(61) COc1cc(C)ccc1S(=O)(=O)NCc1ccco1
 : -6 | -7
(64) COc1cccc(CN(C)C(=O)CSc2nnc3n(CCC(C)C)c(=O)c4ccccc4n23)c1
 : 6 | 6
(66) COc1ccc(C2CC(c3ccccc3Cl)=NN2C(=O)CN2CCOCC2)cc1 (stereo not given)
 : 1 | 3
(75) CCC(NC(=O)CCc1nnc(Cc2cc(OC)ccc2OC)o1)c1ccncc1 (stereo not given)
 : 4&-1 | 1&-3
(78) COCc1c(Br)c(C)nc(OCC(=O)N/N=C\c2ccc(Oc3ccc([N+](=O)[O-])cc3[N+](=O)[O-])c(OC)c2)c1C#N
 : 4 | 4
(82) CCC(C(=O)NC1CCN(c2ccccc2C(=O)NCCc2ccc(OC)c(OC)c2)CC1)c1ccccc1 (stereo not given)
 : -3 | 5
(92) COc1cc(NC(=O)N(CCN2CCCC2)CC(=O)N(Cc2ccccc2)Cc2sccc2C)cc(OC)c1
 : 8 | 11
(93) COc1ccc2c3c(ccc2c1)C1CCC(=O)N1CC3 (stereo not given)
 : -7 | -10
(96) CCOC(=O)C1(Cc2ccc(OC)cc2)CCN(C(=O)C2=CCCCC2)CC1
 : 3 | 1

# Compound activity: PubChem, Fisher Drug Discovery Resource Center

# Some of the compounds tested, so the mix of outcomes need not match the whole.
